Rango complex inh – qHTS Assay for Inhibitors of Rango (Ran-regulated importin-beta cargo) - Importin beta complex formation; Importin subunit beta-1 (Homo sapiens), Q14974; Rango CFP/YFP FRET sensor + importin beta, 45 min; Potency, µM (top dose mostly 92.2 µM), for the others: at the top dose inhibition of complex formation; 340,000 tested, 0.031% active; AID 540263, 2011; active = rising FRET ratio curve, often small or poorly fitted; inconclusive = mostly compound fluorescence or quenching in the first reads; inactive = flat curves in all reads;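 further: potency means the concentration at half of the fitted maximal effect; 0% = DMSO wells and 100% = buffer wells lacking importin beta; nearly all actives have a fitted effect of over 15% in size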
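Inhibition scored from the CFP 486 nm/YFP 530 nm FRET ratio 45 min after adding 0.125 microM importin beta to 50 nM Rango biosensor preincubated 5 min with compound (room temperature, PBS with DTT, Tween-20, BSA). No-importin wells as positive control.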
miR-21 FLuc – qHTS Assay for Modulators of miRNAs and/orActivators of miR-21. HeLa miR-21 FLuc reporter, luciferase, 48 h. Potency, µM (doses to about 38.3 µM), for inactives: at the highest dose reporter change, positive = more light. 340,000 tested, under 10 active; active = well fitted rising curve with a large enough effect; inconclusive = small, poorly fitted or top-dose-only effect; inactive = no such curve, though single readings can be large or run the other way;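 further: % of control where 0% means no effect; miR-21 action dims this reporter so a rising signal means less miR-21 action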
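Compounds were titrated across several concentrations (up to approximately 40 uM) and incubated 48 hours with HeLa miR-21-FLuc reporter cells (miR-21 target sequence downstream of FLuc, endogenous miR-21). Readout was firefly luciferase luminescence after lytic detection reagent.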
Rango release inh – qHTS Assay for Inhibitors of RanGTP induced Rango (Ran-regulated importin-beta cargo) - Importin beta complex dissociation | Snurportin-1 (Homo sapiens) + GTP-binding nuclear protein Ran (Homo sapiens) + Importin … | Biochemical FRET Rango-importin beta, RanGTP-induced dissociation | Potency, µM (series often up to 46.1 µM), for the others: top-dose activity change, negative = inhibition | 340,000 tested, 0.071% active | AID 540253, 2011; active means falling FRET ratio curve, often poorly fitted, with flat reads before Ran was added; inconclusive means other falling curves, or compound fluorescence or quenching; inactive means flat or rising ratio curve;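 further: potency means the concentration at half of the fitted maximal effect; % of control where 0% means no effect; nearly all actives have a fitted effect of over 45% in size; -100% = wells without RanGTP and RCC1; the record marks most hits as doubtful in a second field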
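Compounds sat 5 min at room temperature with 0.1 uM Rango biosensor plus 0.25 uM importin beta, then FRET pre-read. RanGTP-RCC1 (0.6 uM Ran, 2mM GTP, 0.2 uM RCC1) added for 45 min, and the CFP/YFP post-read measured blocked complex dissociation.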
GLA inh pH 4.5 – qHTS Assay for Inhibitors of Human alpha-Galactosidase at pH 4.5. activity change, negative = inhibition, % at 105 µM. 230,000 tested, under 10 active. purified enzyme, 4-MU-alpha-Gal fluorescence, pH 4.5. AID 1467, 2008; inconclusive = small, poorly fitted or top-dose-only inhibition, or a rising curve; inactive = flat fitted curve, though single readings scatter; no compound was filed as active;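 further: 0% = full activity with enzyme and -100% = basal without enzyme; dose as in the result columns while the protocol names 77 µM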
Target sequence (P06280 whole entry, looked up): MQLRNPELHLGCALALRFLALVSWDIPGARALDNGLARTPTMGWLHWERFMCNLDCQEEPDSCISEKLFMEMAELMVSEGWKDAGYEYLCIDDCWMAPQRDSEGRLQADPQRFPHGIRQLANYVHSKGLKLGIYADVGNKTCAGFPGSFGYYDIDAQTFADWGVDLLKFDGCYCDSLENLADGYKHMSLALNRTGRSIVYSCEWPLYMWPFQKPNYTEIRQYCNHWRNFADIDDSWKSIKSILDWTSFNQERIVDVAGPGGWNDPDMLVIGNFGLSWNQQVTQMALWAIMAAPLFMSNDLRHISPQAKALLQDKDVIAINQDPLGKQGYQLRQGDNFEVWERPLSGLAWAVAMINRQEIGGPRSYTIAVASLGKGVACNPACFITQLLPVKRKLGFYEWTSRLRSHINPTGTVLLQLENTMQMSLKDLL
An asterisk follows results filed as active; ? = inconclusive; / = not tested or not shown. An excerpt. The share of hits here may be higher or lower than overall.

miR-21 FLuc	Rango complex inh	GLA inh pH 4.5	Rango release inh	molecule
6%	0.5%	-7	-2%	Cn1c(SCC(=O)NCC2CCCO2)nc2c([nH]c3ccccc32)c1=O (stereo not given)
13%	1.6%	/	-5%	Cc1ccccc1OCC(=O)N/N=C/c1cccc2cccnc12
-24%	-0.8%	0	-10%	COc1ccc(C(=O)NCC2(c3ccccc3)CCOCC2)cc1
/	-9.5%	/	-7%	CCOc1ccccc1NC(=O)c1cc(=O)[nH]c2ccc(S(=O)(=O)N3CCOCC3)cc12
-5%	4.3%	/	1%	COc1ccc(N2CCN(CCNC(=O)Nc3cccc(C)c3C)CC2)cc1
/	0.2%	/	-2%	Cn1c(SCC(=O)Nc2cccnc2Cl)nnc1-c1ccco1
0%	-0.7%	/	1%	Cc1ccc(S(=O)(=O)Nc2ccncc2)c(C)c1
/	0.0%	/	-25%	OCc1ccc(-c2ccccc2)c(-c2ccccc2)c1
/	-3.1%	/	13%	COCc1c(C(=O)N2CCN(Cc3nc4ccccc4s3)CC2)oc2ccccc12
-5%	-4.4%	-23	17%	O=C(NCCc1ccc(Cl)cc1)C1CCN(c2ncccn2)CC1
-12%	-2.1%	4	1%	Cc1cc2oc(=O)cc(CSc3nc(N)cc(N)n3)c2cc1C(C)C
/	0.9%	/	1%	COc1cc(C2(c3ccc(O)c(OC)c3)C(=O)N(C)c3ccc(C)cc32)ccc1O
-3%	1.4%	2	-7%	CC(C)n1ncc2c(C(=O)O)cc(C3CC3)nc21
0%	4.6%	-5	0%	Cc1ccc(S(=O)(=O)NCCCCCC(=O)Nc2c(C)n(C)n(-c3ccccc3)c2=O)cc1
/	1.0%	/	1%	O=C(CSc1nnc2ccc(-c3ccccn3)nn12)Nc1ccc(F)cc1F
-34%	-1.7%	7	-5%	O=C(c1ccco1)N1CCCN(Cc2cn[nH]c2-c2ccc(-c3ccccc3)cc2)CC1
/	3.0%	/	-16%	CNS(=O)(=O)c1cccc(C(=O)OCC(=O)c2ccc[nH]2)c1
-7%	-0.4%	/	-3%	COCC1CCCCN1C(=O)c1cccc(OC2CCN(S(C)(=O)=O)CC2)c1 (stereo not given)
9%	-2.9%	6	2%	Cc1cccc(N/C(N)=N/c2nc(C)cc(C)n2)c1
-2%	3.3%	-3	-8%	CN1CCC(OC(=O)COc2ccccc2)CC1
-1%	-1.2%	/	23%	Cc1ccc([C@@H]2[C@@H]3C(=O)N(C)C(=O)[C@@H]3[C@]3(Cc4ccccc4)C(=O)N(Cc4ccccc4)CC(=O)N23)o1
/	1.5%	/	-2%	CN(C(=O)CS(=O)(=O)c1cn(CC(=O)N2CCCC2)c2ccccc12)c1ccccc1
-45%	/	-3	/	O=C(CSc1nnc(NC(=O)c2ccccc2Cl)s1)Nc1ccc2c(c1)oc1ccccc12
0%	-3.4%	5	-6%	CCOC(=O)NC(Nc1cc(C)ccn1)(C(F)(F)F)C(F)(F)F
0%	4.5%	5	-8%	CCCNC(=O)Nc1nccs1
-50%	2.0%	-20	-11%	COc1ccc(NC(=O)c2cccc(OC(F)F)c2)cc1Cl
-1%	0.8%	6	0%	c1ccc(N2CCOCCOCCOCCOCCOCC2)cc1
29%	4.5%	8	9%	COc1ccc(-n2c(C)cc(C(=O)CCl)c2C)cc1
-1%	4.1%	-1	24%	CCCCNC(=O)COC(=O)c1ccc(Cl)c(S(=O)(=O)N2CCCC2)c1
/	1.7%	/	8%	CCOC(=O)Cc1csc(NC(=O)COC(=O)/C=C/c2ccc(OC)cc2)n1
-17%	-2.1%	7	5%	Cc1cc(-c2nnc(SCc3cccnc3)o2)no1
27%	3.7%	-23	10%	Fc1ccc(Sc2ccccc2CNC2=NCCN2)cc1
-9%	0.4%	/	-1%	O=c1cc(CN2CCOCC2)c2cc(Cl)ccc2o1
-2%	0.5%	9	0%	COC(=O)C(CC(C)C)NC(=O)C(N)Cc1ccccc1 (stereo not given)
20%	-0.6%	-10	-23%	O=C(COc1cccc(F)c1)N1c2ccccc2Sc2ccccc21
-1%	2.3%	3	1%	CCO[C@@H]1OC(C(=O)N2CCN(C)CC2)=C[C@H](c2coc3ccccc3c2=O)[C@H]1CCCO
9%	-2.5%	-12	3%	CC1(C)NC(=O)N(CC(=O)Nc2nc(-c3ccc(F)cc3)cs2)C1=O
/	-1.1%	/	0%	O=C1OC[C@H]2CCCN2C(=O)[C@@H](CC(=O)N(CCO)Cc2ccccc2)C/C=C\C[C@@H]1Cc1ccc(F)cc1
-2%	-3.5%	-14	-14%	Cc1ccc(NC(=O)[C@@H]2CCCN2S(=O)(=O)c2ccccc2C(F)(F)F)cc1S(=O)(=O)N1CCOCC1
0%	3.6%	3	0%	COc1ccc(NC(=S)NC(NC(=O)c2ccccc2Cl)C(Cl)(Cl)Cl)c([N+](=O)[O-])c1 (stereo not given)
7%	?	-4	7%	CC(C)(C)c1ccc(C(=O)CC(=O)c2cc(Cl)ccc2O)cc1
/	4.9%	/	3%	O=C(Nc1cccc(S(=O)(=O)N2CCCCCC2)c1)c1ccc(=O)[nH]c1
/	-0.5%	/	21%	NC(=O)c1cc(S(=O)(=O)N2CCCC2)ccc1OCCOc1ccccc1F
-2%	3.7%	-1	2%	Cc1ccc(NC(=O)NC2CCN(CC(=O)Nc3nccs3)CC2)cc1
-1%	-1.4%	4	13%	CCN(C(=O)COC(=O)c1ccc(Cl)c(N)c1)C1CCS(=O)(=O)C1 (stereo not given)
/	1.2%	/	-28%	COc1ccc2sc(-c3ccc(N(C)C)cc3)c(-c3ccc4cc[nH]c4c3)c2c1
-11%	1.5%	1	-5%	Cc1ccc(O)c(C(=O)CC(=O)c2cccc(F)c2)c1
-2%	0.8%	-7	-11%	CCn1c(CCCCc2n[nH]c(=S)n2CC)n[nH]c1=S
-3%	-1.4%	-12	6%	CC(C)C[C@H](NC(=O)C1(c2ccccc2)CCN(C(=O)[C@H]2CSCN2C(=O)OC(C)(C)C)CC1)C(=O)O
-1%	-0.4%	/	-5%	COc1ccccc1/C=C/CN1CCCC(CO)(CCc2ccccc2)C1 (stereo not given)

Continued:
miR-21 FLuc	Rango complex inh	GLA inh pH 4.5	Rango release inh	molecule
/	0.1%	/	11%	O=C(N/N=C/c1ccc(O)c(O)c1)c1ccc(-n2cnnn2)cc1
?	1.0%	11	-13%	CCc1cc(CNC(=O)CCc2nnc(Cc3cccc(C)c3)o2)on1
-2%	?	-2	10%	O=C(O)CCC1=C2c3ccccc3CCN2C(=O)CC1
-17%	3.2%	/	12%	CCn1c(=O)c2cc(C(=O)NCCN(C)C)sc2c2ccccc21
-9%	/	-6	/	COc1ccc(C(=O)/C=C/Nc2ccc(S(=O)(=O)Nc3ncccn3)cc2)cc1
2%	-1.3%	3	-6%	CCOC(=O)C1=C(C)NC(=O)NC1c1ccoc1 (stereo not given)
-2%	0.9%	/	9%	CC(=O)Nc1c(-c2ccccc2)nc2cc(C)ccn12
-3%	-7.1%	/	-2%	CCOc1ccc(Cl)cc1C(c1c(C)[nH][nH]c1=O)c1c(C)[nH][nH]c1=O
-5%	0.4%	9	16%	CCOc1ccc(S(=O)(=O)n2c(C)nc3ccccc32)cc1
-3%	0.4%	-1	30%	CN(CC(=O)Nc1ccccc1Cl)C(=O)CSc1ncc(C(F)(F)F)cc1Cl

Three compounds already listed, ordered by the number in Rango complex inh, highest first.
miR-21 FLuc	Rango complex inh	GLA inh pH 4.5	Rango release inh	molecule
?	1.0%	11	-13%	CCc1cc(CNC(=O)CCc2nnc(Cc3cccc(C)c3)o2)on1
-9%	0.4%	/	-1%	O=c1cc(CN2CCOCC2)c2cc(Cl)ccc2o1
/	-1.1%	/	0%	O=C1OC[C@H]2CCCN2C(=O)[C@@H](CC(=O)N(CCO)Cc2ccccc2)C/C=C\C[C@@H]1Cc1ccc(F)cc1

(further entries)
miR-21 FLuc	Rango complex inh	GLA inh pH 4.5	Rango release inh	molecule
-33%	3.0%	11	11%	COc1cccc(Nc2nc(CC(C)=O)ns2)c1
-7%	1.3%	5	-16%	Cc1nc([N+](=O)[O-])c(C(=O)O)n1C
-3%	-0.2%	/	0%	CS(=O)(=O)N1CCCC(C(=O)Nc2cccc(F)c2)C1 (stereo not given)
-36%	2.7%	-9	25%	O=C(O)/C=C/C(=O)Nc1ccc(Oc2ncnc3cc(Cl)ccc23)nc1
-11%	1.0%	-3	-13%	COc1ccc(C(=S)N2CCCC2)cc1
-22%	-0.2%	2	1%	COc1ccc(/C=N/NC(=O)CSc2ccccc2)cc1OC
0%	3.8%	/	7%	CCN(Cc1ccc(OC)c(COC)c1)CC1CCCN(CCc2cccc(OC)c2)C1 (stereo not given)
-18%	1.4%	-23	-12%	CC(C)(C)OC(=O)N1CCC(CNC(=O)Nc2ccccc2)CC1
-2%	?	-2	4%	Cc1ccc(C2=[N+]([O-])C(C)(C)CC2)cc1
-5%	-1.8%	5	-1%	CN(c1ccccc1C(=O)N1CCCC1)S(C)(=O)=O
-32%	0.4%	-1	-17%	CCOC(=S)SCC(=O)Nc1ncc(C)s1
-36%	-1.1%	/	-1%	O=C(COc1ccc2ccccc2c1)Nc1cccnc1Cl
1%	-0.1%	2	-6%	COc1ccc(NCc2nnc(SCC(=O)Nc3ccccc3OC)o2)cc1
-2%	4.6%	4	3%	CCOC(=O)c1cnc(-n2nc(C)cc2C)nc1NNc1nc(C)cc(C)n1
2%	-6.2%	-3	5%	CCCCN(C)CCNC(=O)CCNC(=O)Cn1ccc2ccccc2c1=O
-11%	0.2%	3	-1%	O=C(NC1CCCCC1)c1ccc(NS(=O)(=O)c2cccc3cccnc23)cc1
/	-2.9%	/	12%	CCOc1ccc(OCCC(=O)OC(C)C(=O)Nc2ccc(Cl)cn2)cc1 (stereo not given)
1%	-1.2%	3	-21%	CCOCCCn1c(NN)nc2ccccc2c1=O
/	2.6%	/	8%	Brc1ccc(-c2noc3c2-c2nc(-c4ccccc4)sc2CC3)cc1
0%	3.0%	/	1%	Cc1ccc(C(=O)OC(C)CN2C(C)CCCC2C)cc1 (stereo not given)
-8%	?	0	1%	Cc1sc2ncnc(NCCCn3ccnc3)c2c1C
-2%	6.6%	/	-2%	CN(C(=O)c1ccc2nc(N)sc2c1)c1ccccc1
19%	0.1%	/	16%	CCCS(=O)(=O)c1nc(S(=O)(=O)c2ccc(C)cc2)c(N2CCN(CC)CC2)s1
-4%	2.7%	3	-1%	Cc1ccc(CC(CC(=O)NCCc2ccc3c(c2)OCO3)C(=O)O)cc1 (stereo not given)
1%	0.0%	/	7%	O=C1CSCC(=O)N1Cc1ccc(Cl)cc1Cl
-3%	5.0%	3	10%	CCSc1nnc(Cc2cc(=O)[nH]c(=O)[nH]2)n1-c1ccc(Cl)cc1
0%	0.1%	-4	-6%	C=C(C)C(=O)N1CC2(CC(c3cccc(NC(=O)/C(C)=C\C)c3)=NO2)C[C@H]1C(N)=O (stereo not given in full)
-1%	-2.4%	/	2%	Cc1cc(-c2ccc(C)c(S(=O)(=O)NCCCN3CCCCCC3)c2)on1
-1%	-0.1%	2	-8%	COc1cccc(C2=NOC(C(=O)NCC3CCCO3)C2)c1 (stereo not given)
/	-0.7%	/	0%	Cc1sc(NC(=O)CCCCC(=O)Nc2sc(C)c(C)c2C(=O)O)c(C(=O)O)c1C
-19%	0.9%	3	9%	COc1ccc(C2CC(c3ccc4ccccc4c3OC(C)=O)=NN2C(C)=O)cc1 (stereo not given)
-14%	-0.3%	-1	3%	O=c1[nH]c(SCc2ccc(Cl)cc2)nc2c1CCC2
-27%	?	-13	?	Nc1ccc2c(c1)C(=O)Cc1ccccc1S2

Assay outcomes as filed in PubChem.
